FGF22 binding: binders of recombinant human FGF22 by thermal shift. calls only at 9.99 µM. SYPRO orange fluorescence; percent of sucrose octasulfate shift, DMSO zero. actives 1.5% (n = 340,000). AID 651658;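 active = melting point raised past a set limit in the mean and every replicate; three in four hits are not shown here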
Target sequence (Q9HCT0 whole entry, looked up): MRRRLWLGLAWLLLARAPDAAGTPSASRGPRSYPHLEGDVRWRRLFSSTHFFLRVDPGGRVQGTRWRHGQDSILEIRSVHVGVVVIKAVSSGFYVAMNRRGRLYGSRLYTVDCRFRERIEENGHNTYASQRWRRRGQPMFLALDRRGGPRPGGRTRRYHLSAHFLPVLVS
Ecoli growth: E. coli growth inhibition. actives 0.21% (n = 330,000). Escherichia coli growth, OD600, 23 h; active compounds read low. OD600 absorbance (no concentration beside the values);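 active = OD600 absorbance below the run mean of sample wells minus 3.6 SD, in any replicate, cut at about 0.56 in these data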;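 note: stock transfer was 300 nL into about 60 µL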
Vif TR-FRET: HIV-1 Vif–A3G interaction blockers – biochemical, TR-FRET, GST-Vif 1-94, biotin-A3G peptide, dose response retest, primary screen (AID 1117319); TR-FRET GST-Vif / biotin-A3G peptide binding; higher % means a stronger effect; test concentration not given here; strong numbers were not always called active; one-dose inhibition, %; IC50 in µM for titrated hits; actives 0.57% (n = 260,000);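 active = above the screen mean plus three standard deviations and confirmed in dose response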;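 note: Vif residues 1-94 fused to GST binding biotinylated APOBEC3G peptide 110-148; 0% = full assay without inhibitor and 100% = GST in place of GST-Vif; retest series ran down from 100 µM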
rRNA inh HTS: inhibits bacterial ribosomal RNA function over humanized ribosomes; GFP signal change (wild-type ribosome), % (test concentration not listed); E. coli WT GFP vs humanized-ribosome RFP mutants, fluorescence, 24 h; active compounds read low; DMSO median 0, no signal -100; actives 1.6% (n = 350,000);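 active = significant combined selectivity score with lowered wild-type GFP, culture density cut under 30%, mutant RFP and density less affected; inactive = any of these conditions unmet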; note: one replicate is shown; some compounds called inactive have numbers as strong as hits
ALR inh: human ALR oxidase inhibition via reduced H2O2 | actives 3.8% (n = 290,000) | inhibition, % (no concentration beside the values) | purified ALR, DTT oxidation, H2O2 HRP-luminol luminescence | AID 485317 | P55789;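 active = mean and each replicate at 75% or more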;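 note: stock transfer was 7.5 nL into about 7.5 µL; 0% = neutral wells and 100% = wells with inactivated enzyme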
Target sequence (P55789 whole entry, looked up): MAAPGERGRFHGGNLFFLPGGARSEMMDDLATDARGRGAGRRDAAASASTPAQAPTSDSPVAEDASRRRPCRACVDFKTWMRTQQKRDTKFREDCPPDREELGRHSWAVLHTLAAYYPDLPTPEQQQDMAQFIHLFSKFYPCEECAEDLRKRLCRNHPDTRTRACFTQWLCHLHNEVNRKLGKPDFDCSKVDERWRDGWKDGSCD
MLL AF4-AF9 inh: inhibitors of human MLL-AF4/AF9 interaction | AlphaScreen, biotin-AF4 peptide binding to FLAG-AF9 | actives 0.47% (n = 350,000) | inhibition, % at 10 µM | P42568;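 active = every replicate reaching a set inhibition limit, whatever the replicate mean, cut at about 25% in these data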;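 note: 0% = plate neutral control median and 100% = total signal loss; the record names both 10 and 1 µM as test concentration; the first replicate is given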
HNF4A DNA FP: change in binding of human HNF4 alpha to DNA; AID 1224865; actives 0.3% (n = 360,000); HNF4a-FITC DNA binding, fluorescence polarization, 1 h; P41235; activity change, % at 10 µM; in the data active = activity change above about 30%, passing the limit was not always enough;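 note: controls were the assay level and a saturating level of protein; the project sought stronger binding though the title names inhibitors; some compounds called inactive have numbers as strong as hits; positive values seem to mean higher polarization but the record does not say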
Target sequence (P41235 whole entry, looked up): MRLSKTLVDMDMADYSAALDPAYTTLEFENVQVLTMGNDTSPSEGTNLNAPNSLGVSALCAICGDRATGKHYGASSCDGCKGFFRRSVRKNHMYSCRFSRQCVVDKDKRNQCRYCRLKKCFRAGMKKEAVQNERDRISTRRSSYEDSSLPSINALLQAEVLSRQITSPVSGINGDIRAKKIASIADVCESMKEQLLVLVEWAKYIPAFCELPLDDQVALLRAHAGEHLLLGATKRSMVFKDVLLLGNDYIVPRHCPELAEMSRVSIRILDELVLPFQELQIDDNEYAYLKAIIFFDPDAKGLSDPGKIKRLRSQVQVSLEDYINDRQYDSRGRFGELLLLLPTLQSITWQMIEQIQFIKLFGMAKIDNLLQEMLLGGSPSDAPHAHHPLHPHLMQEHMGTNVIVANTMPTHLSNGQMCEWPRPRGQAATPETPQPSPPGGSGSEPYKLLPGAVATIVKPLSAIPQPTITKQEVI
rRNA inh HTS OD600: also measured in rRNA inh HTS; calls as there; OD600 change, %; measured here: OD600 growth;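 optical density of the mix in the first replicate; 0 = DMSO median and -100 = no signal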
rRNA inh HTS RFP: also measured in rRNA inh HTS; calls as there; RFP signal change, %; measured here: RFP humanized mutant strains;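 first replicate; 0 = DMSO median and -100 = no signal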
Active calls of the source: *. This is a subset (hit frequency here may not be typical).

Screening CC1(C(=O)NS(=O)(=O)c2cccs2)CCN1C(=O)CC1CCCCC1 (centres undefined) returned FGF22 binding inactive, rRNA inh HTS 8, MLL AF4-AF9 inh -4.0, HNF4A DNA FP 0.8, rRNA inh HTS OD600 15 and rRNA inh HTS RFP 0.4.
Screening CN(Cc1ccccc1)c1nc2c(c(=O)[nH]c(=O)n2C)n1CCOc1ccccc1 returned Ecoli growth 0.68, Vif TR-FRET 6%, ALR inh -65 and HNF4A DNA FP 3.9.
COc1ccc(C2SCC(=O)N2CCCN(C)C)cc1 (centres undefined) was read as Ecoli growth 0.69, Vif TR-FRET 17%, ALR inh 0 and HNF4A DNA FP -0.8.
Screening O=C(Nc1nnc(SCc2ccc(Cl)cc2)s1)C1CCCO1 (centres undefined) returned Ecoli growth 0.68, Vif TR-FRET 3%, ALR inh -6 and HNF4A DNA FP -0.1.
Screening Nn1c(SCC(=O)NCc2ccc3c(c2)OCO3)nnc1C(F)(F)F returned FGF22 binding inactive, Ecoli growth 0.71, rRNA inh HTS -3, MLL AF4-AF9 inh -2.1, HNF4A DNA FP 3.5, rRNA inh HTS OD600 1 and rRNA inh HTS RFP -4.7.
For Cc1ccc2c(c1)C(c1ccncc1)=NNC(c1ccc(F)cc1)=N2 the results were FGF22 binding inactive, Ecoli growth 0.67, rRNA inh HTS 0, ALR inh -1, MLL AF4-AF9 inh 1.5, HNF4A DNA FP 6.1, rRNA inh HTS OD600 2 and rRNA inh HTS RFP 1.9.
For CC(C)C(NC(=O)c1c(F)cccc1F)C(=O)N1CCN(c2ccccc2F)CC1 (centres undefined) the results were FGF22 binding inactive, Ecoli growth 0.63, Vif TR-FRET 5%, rRNA inh HTS 6, ALR inh -10, MLL AF4-AF9 inh 0.8, HNF4A DNA FP 1.8, rRNA inh HTS OD600 10 and rRNA inh HTS RFP 1.0.
Cc1cc(-c2nnc(CCC(=O)NCc3cc(F)cc(C(F)(F)F)c3)o2)no1 was read as FGF22 binding inactive, Ecoli growth 0.66, rRNA inh HTS 3, ALR inh -1, MLL AF4-AF9 inh -0.1, HNF4A DNA FP 0.6, rRNA inh HTS OD600 7 and rRNA inh HTS RFP -0.7.
`CC(C)C#Cc1ccc([C@H]2[C@@H](C#N)N(C(=O)c3cccc(F)c3)[C@H]2CO)cc1` gave FGF22 binding inactive, rRNA inh HTS -2, MLL AF4-AF9 inh -35, rRNA inh HTS OD600 -39 and rRNA inh HTS RFP 1.5.
For CC(NS(=O)(=O)c1cccc(Cl)c1)C(=O)Nc1ccc(-c2nc3ccccc3s2)cc1 (centres undefined) the results were Ecoli growth 0.79, Vif TR-FRET -15%, ALR inh -8 and HNF4A DNA FP -3.0.
O=C(N[C@@H]1CC[C@H](CCNS(=O)(=O)c2ccc(F)cc2)O[C@H]1CO)c1cnccn1 was read as FGF22 binding inactive, rRNA inh HTS 6, MLL AF4-AF9 inh -2.8, rRNA inh HTS OD600 1 and rRNA inh HTS RFP -1.3.
Screening Cc1[nH]ccc(=O)c1Oc1ncc(C(F)(F)F)cc1Cl returned FGF22 binding inactive, Ecoli growth 0.69, Vif TR-FRET -2%, rRNA inh HTS -1, ALR inh -10, MLL AF4-AF9 inh 2.0, HNF4A DNA FP 1.5, rRNA inh HTS OD600 -5 and rRNA inh HTS RFP -7.5.
Screening C[C@@H]1CN([C@@H](C)CO)S(=O)(=O)c2ccc(C3=CCCCC3)cc2O[C@@H]1CN(C)Cc1ccccn1 returned FGF22 binding inactive, rRNA inh HTS -45, MLL AF4-AF9 inh 9.4, rRNA inh HTS OD600 -56 and rRNA inh HTS RFP 16.
CC12COC3(C(=O)Nc4ccccc4F)CC1CCC32C (centres undefined) was read as FGF22 binding inactive, Ecoli growth 0.7, Vif TR-FRET 2%, rRNA inh HTS 4, ALR inh 4, MLL AF4-AF9 inh -1.3, HNF4A DNA FP -1.8, rRNA inh HTS OD600 4 and rRNA inh HTS RFP -0.8.
C[C@@H]1CN([C@H](C)CO)C(=O)c2cc(/C=C/c3ccccc3)cnc2O[C@@H]1CN(C)Cc1cncnc1 was read as FGF22 binding inactive, rRNA inh HTS 3, MLL AF4-AF9 inh 1.7, rRNA inh HTS OD600 14 and rRNA inh HTS RFP -4.5.

Compounds from the list above that have a CF3 group (three):
Screening Nn1c(SCC(=O)NCc2ccc3c(c2)OCO3)nnc1C(F)(F)F returned FGF22 binding inactive, Ecoli growth 0.71, rRNA inh HTS -3, MLL AF4-AF9 inh -2.1, HNF4A DNA FP 3.5, rRNA inh HTS OD600 1 and rRNA inh HTS RFP -4.7.
Cc1cc(-c2nnc(CCC(=O)NCc3cc(F)cc(C(F)(F)F)c3)o2)no1 was read as FGF22 binding inactive, Ecoli growth 0.66, rRNA inh HTS 3, ALR inh -1, MLL AF4-AF9 inh -0.1, HNF4A DNA FP 0.6, rRNA inh HTS OD600 7 and rRNA inh HTS RFP -0.7.
Screening Cc1[nH]ccc(=O)c1Oc1ncc(C(F)(F)F)cc1Cl returned FGF22 binding inactive, Ecoli growth 0.69, Vif TR-FRET -2%, rRNA inh HTS -1, ALR inh -10, MLL AF4-AF9 inh 2.0, HNF4A DNA FP 1.5, rRNA inh HTS OD600 -5 and rRNA inh HTS RFP -7.5.

Going on with the list.
O=C(O)C1CN(c2nc(Cl)ccc2[N+](=O)[O-])C1 was read as FGF22 binding inactive, Ecoli growth 0.68, Vif TR-FRET -7%, rRNA inh HTS 8, ALR inh 2, MLL AF4-AF9 inh -11, HNF4A DNA FP -7.0, rRNA inh HTS OD600 -4 and rRNA inh HTS RFP 9.0.
`O=C(CN1C(=O)COc2ccccc21)N(Cc1ccccc1)Cc1ccccn1` gave Ecoli growth 0.67, Vif TR-FRET -1%, ALR inh -7 and HNF4A DNA FP 4.3.
`O=C(CN1C(=O)C(=O)N(Cc2ccccc2)C1=O)Nc1cc(Cl)cc(Cl)c1` gave FGF22 binding inactive, Ecoli growth 0.64, rRNA inh HTS -7, MLL AF4-AF9 inh 0.4, HNF4A DNA FP -0.3, rRNA inh HTS OD600 2 and rRNA inh HTS RFP 1.4.
`Cc1c(S(=O)(=O)NC2CCCCCC2)c(=O)n(C)c(=O)n1C` gave FGF22 binding inactive, Ecoli growth 0.68, Vif TR-FRET -3%, rRNA inh HTS 5, ALR inh -1, MLL AF4-AF9 inh -5.5, HNF4A DNA FP -0.6, rRNA inh HTS OD600 12 and rRNA inh HTS RFP -1.4.
COCC(=O)N1[C@H](C#N)[C@H](c2ccccc2-c2cccc(F)c2)[C@H]1CO was read as FGF22 binding inactive, rRNA inh HTS 2, MLL AF4-AF9 inh -2.3, rRNA inh HTS OD600 13 and rRNA inh HTS RFP 1.4.
Screening O=C(CSc1ncccn1)NCc1ccccc1Cl returned Ecoli growth 0.59, Vif TR-FRET -4%, ALR inh -5 and HNF4A DNA FP 5.1.
COc1ccccc1NC(=O)N1CCc2[nH]c3ccc(F)cc3c2C1 was read as Ecoli growth 0.77, Vif TR-FRET -3%, ALR inh -21 and HNF4A DNA FP -6.8.
CC1(CN2CCCC2)CCC(NC(=O)C(c2ccccc2)c2ccccc2)C(C)(C)O1 (centres undefined) was read as FGF22 binding inactive, Vif TR-FRET 4%, rRNA inh HTS 10, MLL AF4-AF9 inh 2.6, HNF4A DNA FP 2.5, rRNA inh HTS OD600 15 and rRNA inh HTS RFP 2.9.
`Cc1ccccc1S(=O)(=O)N1CC[C@@H]2[C@H]1c1cc(-c3ccccc3)ccc1N(C)[C@H]2CO` gave FGF22 binding inactive, rRNA inh HTS -3, MLL AF4-AF9 inh 1.2, rRNA inh HTS OD600 3 and rRNA inh HTS RFP 3.3.
C[C@H](NC(=O)N1CCn2c1nc1ccccc12)C(=O)NCc1ccc2c(c1)OCO2 was read as FGF22 binding inactive, Ecoli growth 0.64, rRNA inh HTS 3, ALR inh -3, MLL AF4-AF9 inh -1.9, HNF4A DNA FP -1.3, rRNA inh HTS OD600 1 and rRNA inh HTS RFP -3.7.
For O=C1CC(C(=O)N(c2ccccc2)C(C(=O)NC2CCCC2)c2ccncc2)CS1 (centres undefined) the results were FGF22 binding inactive, Ecoli growth 0.65, Vif TR-FRET 6%, rRNA inh HTS 8, ALR inh -8, MLL AF4-AF9 inh -1.1, HNF4A DNA FP -0.6, rRNA inh HTS OD600 7 and rRNA inh HTS RFP -3.4.
`COCCn1c(C)cc(C(=O)CSc2nc(C)nc3sc4c(c23)CCC4)c1C` gave Ecoli growth 0.75, Vif TR-FRET -3%, ALR inh -1 and HNF4A DNA FP -1.0.
Oc1ccc(-c2[nH]ncc2-c2nc3ccccc3s2)c(O)c1 was read as FGF22 binding inactive, Ecoli growth 0.69, Vif TR-FRET 12%, rRNA inh HTS -18, ALR inh 83*, MLL AF4-AF9 inh -0.8, HNF4A DNA FP -1.5, rRNA inh HTS OD600 -20 and rRNA inh HTS RFP 4.6.
Screening CCOC(=O)C1CCN(C2CCN(C(=O)c3oc4c(F)cccc4c3C)CC2)CC1 returned FGF22 binding inactive, Ecoli growth 0.68, Vif TR-FRET 1%, rRNA inh HTS 4, ALR inh -1, MLL AF4-AF9 inh -2.0, HNF4A DNA FP 9.7, rRNA inh HTS OD600 0 and rRNA inh HTS RFP 44.
O=C(OCC(=O)N1CCc2ccccc2C1)c1cccnc1Cl was read as FGF22 binding inactive, Ecoli growth 0.73, Vif TR-FRET 20%, rRNA inh HTS -4, ALR inh -4, MLL AF4-AF9 inh -5.4, HNF4A DNA FP 4.1, rRNA inh HTS OD600 4 and rRNA inh HTS RFP 0.2.
Screening COc1cc(-c2nnc(SCC(=O)NC3CCCC3)n2C)cc(OC)c1O returned Vif TR-FRET -9%, rRNA inh HTS -8, MLL AF4-AF9 inh -0.1, HNF4A DNA FP -2.1, rRNA inh HTS OD600 -7 and rRNA inh HTS RFP 5.7.
`COc1ccc(C)cc1NC(=O)CN(C)C1CCCCC1` gave FGF22 binding inactive, Ecoli growth 0.69, Vif TR-FRET 1%, rRNA inh HTS -2, ALR inh 4, MLL AF4-AF9 inh -0.8, HNF4A DNA FP -1.8, rRNA inh HTS OD600 0 and rRNA inh HTS RFP 0.0.
`CCn1ccnc1C(O)c1ccccc1OC` (centres undefined) gave Ecoli growth 0.69, Vif TR-FRET -1%, ALR inh -3 and HNF4A DNA FP 3.6.
Screening CCCCCNC(=O)c1ccc2c(=O)n(CC3CCCO3)c(=O)[nH]c2c1 (centres undefined) returned Ecoli growth 0.71, Vif TR-FRET 24%, ALR inh 1 and HNF4A DNA FP 4.3.
For C[C@H](CO)N1C[C@H](C)[C@@H](CN(C)S(=O)(=O)c2ccc(F)cc2)Oc2ccc(NS(=O)(=O)c3cn(C)cn3)cc2CC1=O the results were FGF22 binding inactive, rRNA inh HTS 0, MLL AF4-AF9 inh -7.9, rRNA inh HTS OD600 8 and rRNA inh HTS RFP -3.4.
C[C@@H]1CCCCO[C@@H](CN(C)Cc2ccncc2)[C@@H](C)CN([C@@H](C)CO)C(=O)c2cc(NC(=O)Nc3ccccc3)ccc2O1 was read as FGF22 binding inactive, rRNA inh HTS -3, MLL AF4-AF9 inh 3.6, rRNA inh HTS OD600 -11 and rRNA inh HTS RFP 1.0.
Screening CCC12CC3CC(C1)CC(C(=O)O)(C3)C2 returned Ecoli growth 0.68, Vif TR-FRET 22%, ALR inh -5 and HNF4A DNA FP 5.5.
Screening COCC(C)NC(=O)c1cc2cccc([N+](=O)[O-])c2[nH]1 (centres undefined) returned FGF22 binding inactive, Ecoli growth 0.64, Vif TR-FRET 18%, rRNA inh HTS 2, ALR inh -9, MLL AF4-AF9 inh 3.6, HNF4A DNA FP -4.6, rRNA inh HTS OD600 -1 and rRNA inh HTS RFP 0.1.

Screening data deposited in PubChem BioAssay by several laboratories.
